Compound activity as filed in PubChem.
INS promoter inh – TRM-6 insulin promoter activity inhibition | inhibition, % at 2 µM | TRM-6 cells (human fetal islet line), insulin promoter-eGFP reporter, imaging; reporter expression induced with tamoxifen | 130,000 compounds, 0.9% hits;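 active = inhibition above the mean plus 3 SD, with well images judged a real hit on visual review, cut at about 60% in these data, passing the limit was not always enough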
GALR2 agonist – activates the human galanin receptor 2; GALR2-expressing cells, agonist activation read-out; 140,000 compounds, 0.48% hits; O43603; activation, %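 (tested at 5 µM)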;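 active = above mean plus 3 SD of all compounds, about 5% in these data, not always enough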;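 note: 0% = vehicle buffer wells and 100% = reference agonist at full effect; tested in CHO reporter cells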
Target sequence (O43603 whole entry, looked up): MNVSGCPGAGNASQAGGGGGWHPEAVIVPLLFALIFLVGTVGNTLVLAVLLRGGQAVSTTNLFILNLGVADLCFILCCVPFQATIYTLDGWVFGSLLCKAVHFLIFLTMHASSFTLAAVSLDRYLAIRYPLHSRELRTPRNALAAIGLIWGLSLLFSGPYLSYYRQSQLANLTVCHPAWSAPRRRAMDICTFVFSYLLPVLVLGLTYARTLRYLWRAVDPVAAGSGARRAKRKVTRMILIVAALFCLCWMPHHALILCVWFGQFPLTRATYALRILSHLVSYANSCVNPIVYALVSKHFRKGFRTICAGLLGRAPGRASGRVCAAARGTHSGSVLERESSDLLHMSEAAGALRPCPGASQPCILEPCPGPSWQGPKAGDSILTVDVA
PKD1 kinase inh – PKD1 (human) kinase inhibition. Q15139. PKD1 kinase fluorescence polarization assay. inhibition, %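 (about 10 µM by stock and volumes)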. 200,000 compounds, 0.056% hits;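 active = inhibition of 50% or more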;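 note: controls were vehicle for no effect and a reference inhibitor for full effect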
RGS16-Gao HTS – RGS16-Galphao interaction regulator (human). O15492+P09471. bead-based flow cytometry RGS16-Galphao binding, fluorescence; actives lie on both sides. binding response (% of control), % at 10 µM. 220,000 compounds, 0.38% hits. AID 1441;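 active = below 25% or above 175%, edge rows of some plates excepted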;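 note: Galphao activated by GDP with aluminum fluoride before binding; 100% = wells without compound and 0% = beads without RGS; some results beyond the cut were filed as inactive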
HSV augment – increases HSV replication in cells | HSV replication augmentation in cells, fold increase | maximum fold increase | 220,000 compounds, 0.005% hits | AID 1956;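 active = peak rise of 1.5-fold or more in the series; tested in PC3 cells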;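 note: first round at 10 µM; read as green reporter fluorescence; hits show the peak of a series up to 25 µM; 1 = signal of infected wells without compound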
INS promoter inh cell count – further read-out of INS promoter inh, marked with its call; normalized cell count, %; measured here: cell count, toxicity; reference of the scale not given here;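 cells exposed to compound for 48 h; stained nuclei by imaging scaled within each plate; lower means fewer cells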
HSV augment primary fold – also measured in HSV augment; calls as there; fold increase; compound at 10 µM; measured here: primary screen fold increase 10 uM; tested in PC3 cells;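 GFP signal in the first replicate; 1 = infected wells without compound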
* marks the source's active call; other numbers are inactive results; i = inactive; · = not tested or not shown. An excerpt (hit frequency here may not be typical).

structure	HSV augment primary fold	INS promoter inh cell count	PKD1 kinase inh	GALR2 agonist	INS promoter inh	RGS16-Gao HTS	HSV augment
Cc1ccc(CCN2CC(C(=O)N3CCC4(CC3)OCCO4)CC2=O)cc1 (centres undefined)	1	85	2	-3.3	53	105	i
C=C1C(=O)O[C@@H]2C[C@@H](C)[C@@H]3C=CC(=O)[C@@]3(C)[C@@H](OC(=O)CC(=O)O[C@H]3[C@@H]4C(=C)C(=O)O[C@@H]4C[C@@H](C)[C@@H]4C=CC(=O)[C@]43C)[C@H]12	0.53	·	·	·	·	89	i
O=C1NC(=O)C2(Cc3c(nc4ccccn4c3=O)N3CCCCCC32)C(=O)N1Cc1ccccc1 (centres undefined)	0.97	·	-8	-0.4	·	102	i
O=C(CN1CCN(CCO)CC1)Nc1ccc(Cl)cc1C(=O)c1ccccc1	1.2	82	5	0.4	-34	99	i
CC(=O)CC(C)(C)n1c[n+](C)nn1	0.93	104	-14	-0.7	-9	100	i
CCn1c(O)c(/C=N/NC(=O)c2ccncc2)c(=O)[nH]c1=S	1	159	4	0.3	0	110	i
CC1(CCl)CN1S(=O)(=O)c1ccccc1 (centres undefined)	1.1	·	·	·	·	95	i
CCOP(=O)(OCC)C(NC(=O)c1ccc(Cl)cc1)=C(Cl)Cl	0.97	104	1	-3.9	-3	104	i
Cc1ccc(C(=O)c2cc(Br)ccc2N)cc1	1.1	·	-5	·	·	96	i
CCCCN1C(=O)C(C2c3ccccc3C(=O)N2Cc2ccccc2)C(=O)NC1=S (centres undefined)	0.86	79	-8	-0.8	-26	102	i
C/C(=N\N1CCCCCC1)c1c(O)n(C2CCCCC2)c(=O)[nH]c1=O	0.88	·	·	·	·	109	i
O=C(CN1C2CCC1CC(O)(c1cccnc1)C2)Nc1ccc2c(c1)OCO2 (centres undefined)	0.79	47	-10	-0.5	14	93	i
Cc1nccn1Cc1ccc(Cl)nc1	0.97	109	-5	·	56	100	i

8 structures from above, ordered by count of non-hydrogen atoms, smallest number first:
structure	HSV augment primary fold	INS promoter inh cell count	PKD1 kinase inh	GALR2 agonist	INS promoter inh	RGS16-Gao HTS	HSV augment
CC(=O)CC(C)(C)n1c[n+](C)nn1	0.93	104	-14	-0.7	-9	100	i
Cc1nccn1Cc1ccc(Cl)nc1	0.97	109	-5	·	56	100	i
CC1(CCl)CN1S(=O)(=O)c1ccccc1 (centres undefined)	1.1	·	·	·	·	95	i
Cc1ccc(C(=O)c2cc(Br)ccc2N)cc1	1.1	·	-5	·	·	96	i
CCn1c(O)c(/C=N/NC(=O)c2ccncc2)c(=O)[nH]c1=S	1	159	4	0.3	0	110	i
C/C(=N\N1CCCCCC1)c1c(O)n(C2CCCCC2)c(=O)[nH]c1=O	0.88	·	·	·	·	109	i
O=C(CN1CCN(CCO)CC1)Nc1ccc(Cl)cc1C(=O)c1ccccc1	1.2	82	5	0.4	-34	99	i
O=C1NC(=O)C2(Cc3c(nc4ccccn4c3=O)N3CCCCCC32)C(=O)N1Cc1ccccc1 (centres undefined)	0.97	·	-8	-0.4	·	102	i
